Compound activity from PubChem BioAssay.
Kir21 block: blocks the mouse Kir2.1 inward-rectifier potassium channel; P35561; HEK293-Kir2.1, FluxOR thallium flux fluorescence; active compounds read low; B-score at 10 µM; actives 0.85% (n = 310,000); AID 1672;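 active means fluorescence ratio B-score at or below minus 3 SD of library scores, with starting-brightness B-score within 2 SD, cut at about -4.2 in these data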;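 further: channel flux triggered by added potassium and thallium sulfate stimulus; B-score of peak minus minimum fluorescence over baseline after thallium stimulus; more negative B-score means stronger Kir2.1 block with less thallium influx; some compounds called inactive have numbers as strong as hits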
Target sequence (P35561 whole entry, looked up): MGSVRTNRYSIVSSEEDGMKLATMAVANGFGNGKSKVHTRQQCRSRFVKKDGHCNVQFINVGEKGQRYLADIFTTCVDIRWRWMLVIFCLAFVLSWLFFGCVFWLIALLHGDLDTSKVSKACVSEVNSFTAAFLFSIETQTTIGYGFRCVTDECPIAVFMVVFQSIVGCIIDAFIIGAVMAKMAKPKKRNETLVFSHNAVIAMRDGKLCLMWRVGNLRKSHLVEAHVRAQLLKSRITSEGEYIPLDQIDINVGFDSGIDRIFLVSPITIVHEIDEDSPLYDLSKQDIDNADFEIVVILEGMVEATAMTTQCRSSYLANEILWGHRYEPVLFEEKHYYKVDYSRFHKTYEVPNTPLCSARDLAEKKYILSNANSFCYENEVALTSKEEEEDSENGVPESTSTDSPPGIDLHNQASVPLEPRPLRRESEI
Active calls of the source: *. Only part of the results is shown; most or all hits stand in other tables.

SMILES | Kir21 block
CC1CCC(NC(=O)C2CCN(S(=O)(=O)c3cccc4nonc34)CC2)CC1 (stereo unspecified) | 1.27
CC(C)SC1=NC(C)(C)C=C(/C=C/c2ccc(Cl)cc2Cl)N1 | -0.42
O=C(c1cc([N+](=O)[O-])ccc1N1CCOCC1)N1CCN(S(=O)(=O)c2ccc(F)cc2)CC1 | 0.79
COc1cccc(CNC(=O)c2ccc(OC)c(S(=O)(=O)NC3CCCC3)c2)c1 | -0.07
Cn1c(=O)[nH]c(=O)c2c1nc(N1CCCCC1)n2CC(O)COc1ccc([N+](=O)[O-])cc1 (stereo unspecified) | 1.17
Cc1ccc(Nc2nc(N)nc(CSc3nnc(C)s3)n2)cc1 | -0.02
Cc1ccc(N2C(=O)CC(N(O)C3CC(=O)N(c4ccc(C)cc4)C3=O)C2=O)cc1 (stereo unspecified) | -2.07
O=C(CCC1CCCN(C(=O)COc2ccccc2)C1)N1CCN(c2ccccn2)CC1 (stereo unspecified) | 0.4
O=C(COC(=O)c1ccccc1Oc1ccccc1)NC1CC1 | -0.01
CCOc1ccc(N2C(=O)CC(N(O)c3ccccc3)C2=O)cc1 (stereo unspecified) | 0.42
CCc1cccc2c(C(=O)COC(=O)c3nccnc3N)c[nH]c12 | -0.07
Cc1cc(C)nc(N(C#N)Cc2ccccc2C)n1 | 0.04
Cc1cccc(C(=O)NCc2nnc(SCC(=O)NC(C)c3ccccc3)n2C)c1 (stereo unspecified) | -0.02
Cc1ccc(C)c(S(=O)(=O)Nc2nc3ccc(S(N)(=O)=O)cc3s2)c1 | 2.07
O=S(=O)(c1ccc2c(c1)OCCO2)N1CCN(c2cccc(Cl)c2)CC1 | 2.73
CCCc1cc(C(=O)N2CCN(S(=O)(=O)c3ccc(OC)c(OC)c3)CC2)cs1 | 0.42
CCN1CCN(C(=O)C2CCN(S(=O)(=O)c3cccc4cccnc34)CC2)CC1 | -0.15
Cc1[nH]c(=O)c(C#N)c2c1CCCC2 | 1.58
O=C(CC1C(=O)NCCN1Cc1ccc(-c2ccccc2)cc1)NCCCn1ccnc1 (stereo unspecified) | -0.26
c1ccc2ncc(-n3cnnn3)cc2c1 | 1.28
C=CCc1c(C)nc(-c2ccccc2)nc1Nc1ccc(O)cc1 | -1.09
O=[N+]([O-])c1ccc(CS(=O)(=O)c2ncn[nH]2)cc1 | 0.3
CCN(CC(=O)NCc1ccc(F)cc1)C(=O)c1ccc(C)o1 | 1.01
COc1ccc(NC(=O)c2ccc(C)o2)c([N+](=O)[O-])c1 | -1.78
O=c1[nH]c2cccnc2n1-c1ccc([N+](=O)[O-])cc1 | 0.58

Structural class, those above with a halogen (4)
SMILES | Kir21 block
CC(C)SC1=NC(C)(C)C=C(/C=C/c2ccc(Cl)cc2Cl)N1 | -0.42
O=C(c1cc([N+](=O)[O-])ccc1N1CCOCC1)N1CCN(S(=O)(=O)c2ccc(F)cc2)CC1 | 0.79
O=S(=O)(c1ccc2c(c1)OCCO2)N1CCN(c2cccc(Cl)c2)CC1 | 2.73
CCN(CC(=O)NCc1ccc(F)cc1)C(=O)c1ccc(C)o1 | 1.01

Continuation:
SMILES | Kir21 block
O=C(NCc1ccco1)c1cc(-c2cccs2)nc2ccccc12 | -0.03
Cc1nnc(NC(=O)C2CC(=O)N(Cc3ccccc3)C2)s1 (stereo unspecified) | 0
COc1ccc(CCN(C)Cc2ccc(OC)c(OCc3ccccc3)c2)cc1OC | -2.67
COC(=O)c1nc(NC(C)=O)n[nH]1 | -0.23
CC(C)[C@H](NC(=O)c1c(F)cccc1F)C(=O)N1CCN(c2ccc(F)cc2)CC1 | 0.41
COc1ccccc1N1CCN(CC(=O)Nc2c(C)n[nH]c2C)CC1 | -0.02
COc1ccc2nc(NC(=O)CCc3cc(OC)c(OC)c(OC)c3)sc2c1 | 0.59
CC(=O)c1ccc(N2CCN(C(=O)c3ccc4ccccc4n3)CC2)cc1 | 0.08
CN(C)C(=O)c1ccc(NC(=O)c2ccccc2Sc2ccccc2C#N)cc1 | -1.17
O=C(CSc1nc(-c2ccccc2)cs1)N1CCc2ccccc21 | -1.94
O=C(CSc1nnc(COc2ccccc2)o1)NCCc1ccccc1 | 0.41
Fc1ccc(-c2csc(-c3ccc(C4SCCS4)cc3)n2)cc1F | -0.78
CCOc1ccc2nc(SCC#N)c(C#N)cc2c1 | 0
CC(C)CNC(=O)C1CC(=O)OC12CCCCC2 (stereo unspecified) | 0.32
Cc1cccc(N(C(=O)c2sc(C)nc2C)C(C(=O)NCc2ccco2)c2ccccc2)c1 (stereo unspecified) | 1.48
CC(C)[C@H](NC(=O)OCc1ccccc1)C(=O)NCc1ccccc1 | 0.02
O=C(NCc1ccccc1)c1cccc(S(=O)(=O)N2CCCCC2)c1 | -0.07
C=CCn1c(SCC(=O)NNC(=O)Nc2ccc(C)cc2)nnc1-c1ccccc1 | 0.26
Cc1ccc(NC(=O)C(OC(=O)c2ccc(C=O)cc2)c2ccccc2)cc1Cl (stereo unspecified) | 0.64
COc1ccc(CNC(=S)N2CCN(Cc3ccccc3)CC2)cc1 | -1.39
O=C(C1CCCN1S(=O)(=O)c1cccc2cccnc12)N1CCc2ccccc21 (stereo unspecified) | 2.15
CCN(CC)CCNc1nc2c(c(=O)[nH]c(=O)n2C)n1CCCc1ccccc1 | -0.78
CS(=O)(=O)c1ccc2nc(NC(=O)CCN3C(=O)c4ccccc4C3=O)sc2c1 | -1.51
N#Cc1c(-c2ccccc2)ccnc1Oc1ccccc1 | 0.2
CCOc1ccc2nc(SCC(=O)NCc3ccc(S(N)(=O)=O)cc3)[nH]c2c1 | 0.56

Further compounds
SMILES | Kir21 block
O=C(Cc1cccc2ccccc12)NNC(=O)Nc1ccc(Cl)cc1 | 1.41
COc1ccc(O[C@H]2C=C[C@@H](c3ccccc3)O[C@@H]2COC(=O)CC/C(C)=N/O[C@@H](C)c2cc(-c3c(C)cc(C)cc3C)no2)cc1 | 2.51
CCc1ccc(C2CC(c3ccccc3Cl)Nc3nc(N)nn32)cc1 (stereo unspecified) | -0.7
CCOC(=O)Cn1nc(C)n(-c2ccc(Cl)cc2)c1=O | -0.63
COc1ccc(NC(=O)C(Sc2ccccc2)c2ccccc2)c(OC)c1 (stereo unspecified) | 0.4
Cc1ccc(C(=O)N2CCN(c3ccccc3F)CC2)cc1NC1=NC2CS(=O)(=O)CC2S1 (stereo unspecified) | 0.28
COc1ccc(C(=O)CC2OC(=O)c3ccccc32)cc1OC (stereo unspecified) | 0
Cc1ccc(Nc2ncnc3nc[nH]c23)cc1Cl | -0.1
O=C(c1ccco1)N1CCN(Cc2ccccc2F)CC1 | -1.74
O=C1C(=O)N(CCCn2ccnc2)C(c2cccc(Br)c2)/C1=C(\O)c1ccc2c(c1)OCCO2 (stereo unspecified) | -1.33
CCOc1ccc(C(CC(=O)O)n2cnnn2)cc1OC (stereo unspecified) | -1.25
CCOC(=O)C1CCN(C(=O)C2CC(=O)N(c3ccc(C)cc3)C2)CC1 (stereo unspecified) | 0.06
COc1ccccc1OCCOc1ccccc1/C=N/n1cnnc1 | -1.49
C=CCc1cccc(Cl)c1OCCON1C(=O)CCC1=O | 0.49
CCOC(=O)Cn1nnc(-c2ccc(SC)cc2)n1 | 0.34
CN(C(=O)Nc1cccc(C(F)(F)F)c1)C1CCCCC1 | 0.71
O=S(=O)(NCc1cccnc1)c1ccc(Cl)c(Cl)c1 | -0.32
C=CCNC(=O)CN1C2CCCC1CC(NC(=O)c1ccccc1C)C2 (stereo unspecified) | 0.82
CCCc1nnc2c(N(C)S(=O)(=O)c3ccccc3)nc3ccccc3n12 | 0.48
NC(=O)C[C@@H]1NC(=O)[C@H](CCC(=O)O)NC(=O)c2cc([N+](=O)[O-])cc(I)c2OCC[C@@H](C(N)=O)NC1=O | -0.67
Cc1noc(C)c1C(=O)Nc1ccc(F)cc1F | 1.88
CCSc1nc2sccc2c(=O)n1-c1ccccc1 | -1.52
CCCOc1ccc(/C(O)=C2/C(=O)C(=O)N(CCN(C)C)C2c2ccco2)cc1 (stereo unspecified) | -0.36
CSCC[C@H](NC(=O)Cc1c(C)c2c(cc(C)c3c(C)c(C)oc32)oc1=O)C(=O)O | 1.07
O=CN1CCN(C(=O)c2ccccc2F)CC1 | -0.3

Following part.
SMILES | Kir21 block
CSc1ccc(S(=O)(=O)NC2CCCCC2)cc1 | 0.44
COc1ccc(N2CC(C(=O)NCc3ccccc3)CC2=O)cc1 (stereo unspecified) | 1.86
CCOC(=O)C1CCCCN1Cc1cccc(C(F)(F)F)c1 (stereo unspecified) | -0.08
COc1ccc(Cn2cccc(NC(=O)Nc3cccc(OC)c3)c2=O)cc1 | 0.05
COc1ccc(C(=O)CSc2nc(C)cc(=O)[nH]2)cc1C | -1.39
O=C(O)C1(c2ccccc2)CCN(S(=O)(=O)c2ccc(Cl)s2)CC1 | -0.42
COC(=O)c1[nH]c2cc(OC)ccc2c1NC(=O)c1c(F)cccc1F | -0.9
O=C(Nc1ccc(F)cc1F)c1cc(=O)n(-c2ccccc2)c(=O)[nH]1 | 0.37
CN(CCOc1ccccc1)C(=O)CCc1nc2sc3c(c2c(=O)[nH]1)CCCC3 | -1.6
C=CCOc1ccc2nc(NC(=O)OC)[nH]c2c1 | 1.51
COc1cc(CN2CCNC(=O)C2CC(=O)NC2CCCCC2)cc(OC)c1 (stereo unspecified) | -0.48
CCCNC(=O)c1cc(Cl)c(NC(=O)C2=CSCCO2)cc1OC | 0.16
Cn1c(=O)c(C(=O)COc2ccc(F)cc2Cl)c(N)n(Cc2ccccc2)c1=O | 3.15
O=C(Cc1cccc2ccccc12)N1CCCc2ccccc21 | -4.08
COc1cc(/C=N/NC(=O)CCN2CCN(c3ccccc3)CC2)cc(OC)c1OC | -0.58
Cn1c(=O)[nH]c(=O)c2c1nc(CN1CCN(c3ccc(F)cc3)CC1)n2CCN1CCOCC1 | 0.44
CS(=O)(=O)N1CCC(C(=O)Nc2cc(C(F)(F)F)ccc2Cl)CC1 | -0.41
CCOC(=O)c1c(C)n(C)c2ccc(OC(C)=O)cc12 | -0.07
CCN(CC)S(=O)(=O)c1cccc(C(=O)c2c(C)cc3ccccn23)c1 | 1.56
O=C(NCCN1C(=O)S/C(=C\c2cccs2)C1=O)c1ccco1 | -1.63
Cc1ccc2[nH]c(=O)c(CN(CC3CCCO3)C(=S)NCc3ccco3)cc2c1 (stereo unspecified) | -1.2
CCCCc1ccc(NC(=O)C(C)CC)cc1 (stereo unspecified) | 0.1
CCCc1ccc(OCC(O)CN2CCN(C(=O)OCC)CC2)cc1 (stereo unspecified) | 2.8
O=C(c1ccc(Cl)c(S(=O)(=O)N2CCCCC2)c1)N1CCCCCC1 | 0.43
Cc1cc(NC(=O)C2CC2)n(-c2nc3ccccc3s2)n1 | 0.15

3 of the entries above in order of their number in Kir21 block, rising:
Molecule | Kir21 block
CN(CCOc1ccccc1)C(=O)CCc1nc2sc3c(c2c(=O)[nH]1)CCCC3 | -1.6
COc1ccc(C(=O)CSc2nc(C)cc(=O)[nH]2)cc1C | -1.39
O=C(c1ccc(Cl)c(S(=O)(=O)N2CCCCC2)c1)N1CCCCCC1 | 0.43

The results go on.
SMILES | Kir21 block
Nc1nc(-c2ccc(F)cc2)cs1 | -0.1
COc1ccc([N+](=O)[O-])cc1NC(=O)C(C)Sc1nc(C)c(C)c(C)n1 (stereo unspecified) | 1.19
CNC(=O)/C(C#N)=C/c1ccc(OCCOc2ccccc2)cc1 | 1.5
O=C(CSc1ncccn1)Nc1ccc(S(=O)(=O)N2CCCCC2)cc1 | -1.48
COCCCC1CCN(C(=O)C2CCC(=O)N(Cc3cccc(F)c3)C2)CC1 (stereo unspecified) | 0.02
O=C(NCCc1ccccc1)c1ccc(CS(=O)(=O)Cc2ccccc2F)o1 | 0.48
Cc1ccc(C2C(C(=O)O)c3ccccc3C(=O)N2C)c(C)c1 (stereo unspecified) | -1.15
COc1cccc(CNC(=O)CN(C)S(=O)(=O)c2ccc(Br)s2)c1 | -0.45
O=C(Nc1cc2c3c(c1)CC(=O)N3CCC2)c1ccccc1C(F)(F)F | -0.68
O=C(N/C(=C/c1cccc([N+](=O)[O-])c1)C(=O)N1CCOCC1)c1ccc(Br)cc1 | -1.65
CC(=O)c1[nH]c(C)c(C(=O)N2CCCC(Nc3ccc(C(C)C)cc3)C2)c1C (stereo unspecified) | 2.04
COc1cc(C(=O)NC(C)C2CC3CCC2C3)cc(OC)c1OC (stereo unspecified) | -0.06
CC(C)N1C(=O)CCC1C(=O)N1CCN(c2ccccn2)CC1 (stereo unspecified) | -0.29
CCN(C(=O)CN1CCc2ccccc21)c1c(N)n(Cc2ccccc2)c(=O)[nH]c1=O | -0.42
COc1cc(NC2c3ccccc3C(=O)N2Cc2ccc3c(c2)OCO3)cc(OC)c1OC (stereo unspecified) | 1.3
O=C(/C=C/c1cccs1)c1cc(Cl)ccc1OC(=O)N1CCOCC1 | -1.52
COc1ccccc1NC(=O)N1CCCC1C(=O)NC1CCCCC1 (stereo unspecified) | -1.88
CCOC(=O)c1cc(-c2ccc(C)o2)nn1CCC#N | 0.35
O=C(c1ccco1)N1CCC(N2CCN(c3ccccc3)CC2)CC1 | 1.95
COc1cccc(NC(=O)C(NCCC(C)C)c2ccccc2)c1 (stereo unspecified) | -0.86
O=C(/C=C/c1ccccc1[N+](=O)[O-])NCCCn1ccnc1 | -1.02
COc1cc(NC(=O)c2cccc3c2C(=O)N(Cc2cccnc2)C3)cc(OC)c1OC | 1.86
CCN(CC)C(=O)C1CCCN(C/C=C/c2ccccc2[N+](=O)[O-])C1 (stereo unspecified) | 0.05
COc1cccc(OC)c1C(=O)OCC(=O)NCC(C)C | 0.43
CCN1CCN(Cc2ccc(NC(=O)c3cc(NC(=O)N4CCNC4=O)cc(OC)c3)cc2C(F)(F)F)CC1 | 1.4
Nc1nnn(-c2ccccc2)c1-c1ccccc1 | 0.18
COc1ccc(Cn2c(=O)[nH]c3cc(C(=O)NCCCN4CCCC4=O)ccc3c2=O)cc1 | 1.85
Brc1ccc(OCCN2CCOCC2)cc1 | 0.18
CC(C)CNC(=S)N1CCC(NC(=O)c2ccco2)CC1 | -0.01
